Screening results from PubChem BioAssay.
Mtb MenB inh: blocks the Mycobacterium tuberculosis MenB enzyme | P9WNP5 | MenB enzyme assay, absorbance read-out; some hits fall short of the stated cut | inhibition, %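 (about 12 µg/mL by stock and volumes)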 | actives 0.43% (n = 100,000);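 active = mean of two replicates above 30%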;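 also: 0% = no compound and 100% = wells with inactive enzyme; the first replicate is given; strong numbers were not always called active; inactives centre near -10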
Target sequence (P9WNP5 whole entry, looked up): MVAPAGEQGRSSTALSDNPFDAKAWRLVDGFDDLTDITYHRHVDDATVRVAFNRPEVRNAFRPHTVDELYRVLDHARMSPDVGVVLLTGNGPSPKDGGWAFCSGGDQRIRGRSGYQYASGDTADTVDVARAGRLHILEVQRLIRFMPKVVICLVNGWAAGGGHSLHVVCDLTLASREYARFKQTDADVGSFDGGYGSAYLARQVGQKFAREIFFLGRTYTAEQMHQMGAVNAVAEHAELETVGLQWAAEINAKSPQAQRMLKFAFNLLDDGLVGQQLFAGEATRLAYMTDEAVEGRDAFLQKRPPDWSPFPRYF
Mtb MbtI inh: inhibitors of Mycobacterium tuberculosis siderophore enzyme MbtI; P9WFX0; purified MbtI enzyme, fluorescence intensity read-out; inhibition, %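 (about 17 µg/mL by stock and volumes)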; actives 0.89% (n = 100,000);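 active = above 50% in both replicates, above 80% if mildly self-fluorescent; inactive = the rest, strongly fluorescent compounds included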;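 also: 0% = mean of negative and 100% = mean of positive controls; one replicate is shown; some compounds called inactive have numbers as strong as hits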
Polio RdRp inh: poliovirus RNA polymerase inhibition; P03300; poliovirus polymerase elongation, fluorescence polarization; hits give low values; % elongation, % (compound at 16.7 µg/mL); actives 0.66% (n = 150,000); in the data active = % elongation below about 90%; also: some results filed as inactive read as strong as hits
Target sequence (P03300 1749-2209 limits assumed): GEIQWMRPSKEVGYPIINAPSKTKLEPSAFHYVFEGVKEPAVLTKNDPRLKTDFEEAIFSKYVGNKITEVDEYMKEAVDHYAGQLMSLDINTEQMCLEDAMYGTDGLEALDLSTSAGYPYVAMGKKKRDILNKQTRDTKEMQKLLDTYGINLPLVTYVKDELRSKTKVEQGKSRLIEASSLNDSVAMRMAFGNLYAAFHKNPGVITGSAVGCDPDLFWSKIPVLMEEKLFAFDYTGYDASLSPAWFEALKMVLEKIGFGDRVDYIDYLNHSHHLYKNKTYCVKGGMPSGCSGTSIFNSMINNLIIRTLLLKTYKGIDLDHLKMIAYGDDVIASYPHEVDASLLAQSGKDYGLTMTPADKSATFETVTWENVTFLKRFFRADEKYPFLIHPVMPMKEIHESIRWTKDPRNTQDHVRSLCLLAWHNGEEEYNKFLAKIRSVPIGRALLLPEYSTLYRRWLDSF
Polio RdRp inh intensity: also measured in Polio RdRp inh; calls as there; % elongation; measured here: total intensity read-out; formula for this scale not given here;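 total fluorescence in place of polarization; lower means less elongation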
An asterisk follows results filed as active; / = not tested or not shown.

SMILES,Polio RdRp inh intensity,Polio RdRp inh,Mtb MbtI inh,Mtb MenB inh
CC(C)n1c(=N)c(C#N)cc2c(=O)n3ccccc3nc21,108,101,17,-50
O=C(CSCc1ccco1)c1ccco1,104,102,14,-21
NC(=O)CC1C=CS(=O)(=O)C1 (configuration not stated),108,104,-8,/
CC1S/C(=C(/C#N)C(=O)NCc2ccco2)N(Cc2ccco2)C1=O (configuration not stated),111,104,13,-21
O=C1c2ccccc2C(=O)N1CCCCN(C(=O)c1ccco1)c1ccc(Cl)cc1,98,100,9,5
O=C(COC(=O)c1ccc(S(=O)(=O)N2CCOCC2)cc1)Nc1ncc(Cl)cc1Cl,110,105,-4,3
O=C(CCNS(=O)(=O)c1ccccc1)N1CCCc2ccccc21,103,106,37,8
CCN(C(=O)c1cccc(F)c1)C1CCS(=O)(=O)C1 (configuration not stated),106,102,-5,-16
COc1ccc(-c2cc(NCc3ccccc3)n3cnnc3n2)cc1,101,101,71,9
O=C(NCc1ccccc1)c1cc(-c2ccccc2)n[nH]1,106,101,-10,-16
NCC(=O)NCc1ccco1,109,104,-11,-24
Nc1nc2c(c(=O)[nH]1)CCC2,102,101,-8,20

Next section.
SMILES,Polio RdRp inh intensity,Polio RdRp inh,Mtb MbtI inh,Mtb MenB inh
Cc1cc(-n2c(C)cc(/C=C/C(=O)N3CCN(c4ncccn4)CC3)c2C)no1,96,109,10,-49
c1ccc2c(c1)-c1ccccc1C2N1CCOCC1,108,103,0,-10
CNc1ccccc1C(C)(C)c1cc(-c2cccs2)n[nH]1,100,99,-11,/
CN=c1scc(-c2ccc3c(c2)OCCO3)n1/N=C/c1ccc(NC(C)=O)cc1,112,107,-8,-51
c1ccc(CN2CCN(Cc3nnc(-c4ccccc4)o3)CC2)cc1,102,102,-7,1
CSc1nnc(C2CCCN(CC(=O)NC3CCCCC3C)C2)n1C (configuration not stated),102,100,-1,-6
CCn1c(CCc2ccccc2)nc2ccccc21,103,100,-4,11
O=C(Nc1ccccc1)Nc1ccc2snnc2c1,102,103,8,10
CCc1c(C)sc(NC(=O)c2cccs2)c1C(N)=O,79*,74*,/,-37
COc1ccc(-c2nc(C)c(CCNS(=O)(=O)c3ccc(Cl)s3)s2)cc1OC,104,99,33,-8
O=c1oc2ccc(Cl)cc2cc1-c1nc2ccccc2s1,102,104,/,-2
CCOC(=O)C1CCCCN1S(=O)(=O)c1cc2c(cc1C)NC(=O)CO2 (configuration not stated),101,100,-21,7

Additional records.
SMILES,Polio RdRp inh intensity,Polio RdRp inh,Mtb MbtI inh,Mtb MenB inh
CCn1c(NC(=O)COc2cccc(C(F)(F)F)c2)nc2ccccc21,109,103,/,-5
O=C(CCCN1C(=O)c2ccccc2Sc2ncccc21)NCc1ccccc1Cl,100,101,-2,3
C=C1CC23CC4C5[C@@]6(C)C[C@H](OC(=O)c7ccccc7)[C@@H](OC(C)=O)[C@@]57C2[C@H](OC(C)=O)[C@@H]1[C@H](O)[C@H]3[C@H]7N4C6,99,102,-10,0
Cc1cc2nnc(C#N)c(C)n2n1,100,100,4,-41
COc1cccc(C2Nc3cccc4cccc(c34)N2)c1O,105,103,83,-11
CNC(=O)C1CC(=O)N(Cc2ccc(F)cc2)C(=Nc2ccc(F)cc2)S1 (configuration not stated),103,101,-20,0
CCOC(=O)N1CCN(C(=O)CN(C)S(=O)(=O)c2ccc3c(c2)C(C)(C)C(=O)N3C)CC1,100,101,7,-22
CCc1nnc(SCc2nc(-c3ccc(OC)c(OC)c3)oc2C)c2cc3oc(C)cc3n12,105,103,22,-16
CC1CCN(C(=O)COC(=O)c2ccc(-c3ccccc3)cc2)CC1,96,100,4,/
COc1ccc(NC(=O)c2ccco2)cc1Nc1cc(C)nc2nc(-c3cccc(C)c3)nn12,105,101,6,-16
Nc1ccc(-c2n[nH]c(=O)c3ccccc23)cc1N,103,99,15,-23
CN(C1CCCCC1)S(=O)(=O)c1ccc2c(c1)OCC(C(=O)N1CCCCC1)O2 (configuration not stated),100,101,2,-21

(next part)
SMILES,Polio RdRp inh intensity,Polio RdRp inh,Mtb MbtI inh,Mtb MenB inh
COc1ccc(C(N)C(=O)O)cc1 (configuration not stated),95,99,16,-9
O=C(NCC1COc2ccccc2O1)C1CCN(S(=O)(=O)c2ccccc2)CC1 (configuration not stated),108,104,8,-23
Cc1ccc(C(=O)C(C)C2c3cc(Br)ccc3OC(=O)C2C(=O)c2ccccc2)cc1 (configuration not stated),100,103,2,-26
CCOc1nc(-c2ccccc2)cc(-c2ccccc2)n1,101,101,1,-12
Cc1ccc(Nc2nc(CSc3nc4ccccc4s3)cc(=O)[nH]2)cc1,103,101,7,-11
CCOC(=O)N1N=C(C)CC1(O)c1ccccc1 (configuration not stated),104,101,-26,-31
O=C(Nc1ccccc1NC(=O)c1cccs1)c1cccs1,103,102,-13,9
Cn1ncc(Br)c1-c1cccc(NC(=O)COCC(=O)O)c1,98,100,-11,-3
O=C(NCC(c1ccc(Cl)cc1)N1CCOCC1)c1ccccc1 (configuration not stated),103,102,-25,15
CCCNc1nc2ccccn2c(=O)c1/C=C1\SC(=S)NC1=O,142,121,5,-43
CCc1cccc(NC(=O)[C@@H]2CCCN2C2=NS(=O)(=O)c3ccccc32)c1,96,105,20,9
Cc1ccc(NC(=O)c2ccco2)c(NC(=O)COc2ccc(I)cc2)c1,102,103,-4,-23

Additional entries follow:
SMILES,Polio RdRp inh intensity,Polio RdRp inh,Mtb MbtI inh,Mtb MenB inh
O=C(NCCOC12CC3CC(CC(C3)C1)C2)c1cc2ccccc2oc1=O,111,109,/,1
Cc1ccc(S(=O)(=O)Nc2cc3c(cc2N2CCOCC2)n(C)c(=O)c(=O)n3C)cc1,102,102,-20,-4
C=CCN(CC=C)C(=O)c1c(-c2ccccc2Cl)noc1C,99,100,-9,-56
Cc1ccc2onc(CNC(=O)N3CCN(Cc4ccc5c(c4)OCO5)CC3)c2c1,104,103,-10,-31
CN(C)CC(C)(O)c1ccc(Br)cc1 (configuration not stated),98,102,0,/
Cc1cc(-c2nc(C34CC5CC(CC(C5)C3)C4)cs2)no1,100,104,/,-36
O=C(Nc1ccccc1Cl)c1ccc(-n2cnnc2)cc1Cl,104,106,-9,-17
Cc1ccc2cc(C(=O)O)[nH]c2c1,102,101,88,-10
N#Cc1nc2n(c1C#N)CN(CCc1ccc(Cl)cc1Cl)CN2,99,105,-1,-8
COc1cccc(-c2cc(C(=O)N3CCN(c4cc(C)ccc4C)CC3)[nH]n2)c1,104,102,5,-21
CC(C)NC(=O)CSc1nnc(-c2ccc3c(c2)OCO3)o1,105,101,2,-18
O=C(O)C1CCCCC1C(=O)N1CCN(c2ccccn2)CC1 (configuration not stated),101,101,-269,-15

Later entries.
SMILES,Polio RdRp inh intensity,Polio RdRp inh,Mtb MbtI inh,Mtb MenB inh
Cc1ccc(C(=O)O)c2c1N[C@H](c1ccccc1Cl)C1CC=CC21 (some centres not stated),102,104,-103,-2
O=C(N/N=C/c1ccco1)c1cccc(S(=O)(=O)Nc2cccc(Cl)c2)c1,111,103,24,-4
Cc1ccc(C#N)o1,105,104,-4,3
COc1ccc(-n2cnnc2SCc2cnc(-c3ccccc3)s2)cc1,104,99,10,-18
CN(C)S(=O)(=O)c1cccc(COC(=O)c2cccnc2Cl)c1,107,103,-3,9
CC1CCCC(NC(=O)Cn2c3ccccc3c3cn[nH]c(=O)c32)C1C (configuration not stated),102,102,5,-12
CC1=CC(=O)C(C(=O)/C=C/c2cc3ccccc3nc2N2CCOCC2)C(=O)O1 (configuration not stated),116,105,2,7
COc1ccccc1CN(C)Cc1nc(N)nc(Nc2ccccc2C)n1,106,104,-8,-22
CC(=O)N(Cc1cc2cccc(C)c2[nH]c1=O)C(C)(C)C,103,100,90,-40
Clc1ccc(Cn2c(/N=C/c3ccc4c(c3)OCO4)nc3ccccc32)cc1,106,103,3,-1
COc1cccc(CNC(=O)c2ccc3nc(SCc4ccc(F)cc4)n(C)c3c2)c1,107,106,4,-39
CC1=CC(=C(C#N)C#N)C=C(C)N1Cc1ccc(Cl)cc1,100,104,20,-3

Additional records follow:
SMILES,Polio RdRp inh intensity,Polio RdRp inh,Mtb MbtI inh,Mtb MenB inh
Cc1nc(COc2ccc(C(C)(C)C)cc2)sc1C(=O)NN,107,106,-11,8
OC(CNC12CC3CC(CC(C3)C1)C2)COCc1ccco1 (configuration not stated),107,101,2,11
CCOC(=O)c1ccc(N2C(=O)c3[nH]nc(-c4ccc(OC)cc4)c3C2c2ccc(OC)cc2)cc1 (configuration not stated),104,102,6,-28
NC(=O)COC(=O)c1cn(-c2ccccc2)nc1-c1ccccc1,105,104,-4,-20
CCOC(=O)c1cc(/C(C)=N/NS(=O)(=O)c2ccc(F)c(Cl)c2)on1,98,98,10,5
O=C1NCCCC1C(=O)Nc1cccc(C(F)(F)F)c1 (configuration not stated),103,103,-17,-11
Cc1ccc(CN2C(=O)c3ccccc3Sc3ccc(C(=O)NCCN4CCOCC4)cc32)cc1,108,103,-8,-12
Cc1cc(C)c(S(=O)(=O)NCCc2ccncc2)c(C)c1,98,99,5,-1
Cc1ccc(Cn2c(=O)c3ccccc3n3c(CCC(=O)O)nnc23)cc1,103,101,4,12
O=C(O)CCCc1nc2ccccc2s1,101,103,-19,9
CN1CCN(S(=O)(=O)c2ccc(Br)cc2)CC1,107,101,/,-1
CC(=O)N1CCN(CC(=O)Nc2ccc3c(c2)OC(F)(F)O3)CC1,111,106,12,-8

(list continues)
SMILES,Polio RdRp inh intensity,Polio RdRp inh,Mtb MbtI inh,Mtb MenB inh
CC(C)CC1=NN2C(=N)/C(=C/c3cccs3)C(=O)N=C2S1,106,101,9,-42
O=C(CSc1nnc2c(n1)[nH]c1ccccc12)NCc1ccco1,108,104,/,-6
CCn1c(SCC(=O)OCC(=O)Nc2cccc(C(F)(F)F)c2)nnc1-c1ccco1,106,103,-7,3
O=C(O)CC(c1ccccc1)n1cnnn1 (configuration not stated),111,105,/,-14
CCCn1cnc2c(sc3nc4c(cc32)CSC(C)(C)C4)c1=O,103,102,-13,-5
Fc1ccc(NC(=S)NC2CN3CCC2CC3)cc1 (configuration not stated),90,100,36,-11
COc1ccc(CCn2c(N)cc(=O)[nH]c2=O)cc1OC,119,113,/,-3
COc1ccc(C2NN=C3c4[nH]c5ccc(C)cc5c4CCC32)cc1 (configuration not stated),112,104,-72,-15
CN(C)c1ccc(NC(=O)COC(=O)Cc2ccc(Br)cc2)cc1,97,99,-3,/
CC(C)(CNc1nsc2ccccc12)N1CCOCC1,97*,89*,50,2
Nc1cnn(C2OC(COC(=O)c3ccccc3)C(O)C2O)c(=O)n1 (configuration not stated),95,100,/,-7
CC(C)(O)C(=O)/C=C/c1ccc(Cl)cc1,101,104,19,-21

Next section:
SMILES,Polio RdRp inh intensity,Polio RdRp inh,Mtb MbtI inh,Mtb MenB inh
COC(=O)c1ccc(CSC(=N)N)o1,103,101,2,13
O=C(CCSc1nc(-c2ccco2)cc(C(F)(F)F)n1)NCCc1ccccc1,97,100,-4,-19
O=C(NCCOc1ccccc1)c1ccccc1Cl,106,103,/,-25
O=C(COC(=O)C1(c2ccc(F)cc2)CCCC1)NCc1ccco1,106,101,10,/

By substructure: the entries above with a tert-butyl group
SMILES,Polio RdRp inh intensity,Polio RdRp inh,Mtb MbtI inh,Mtb MenB inh
CC(=O)N(Cc1cc2cccc(C)c2[nH]c1=O)C(C)(C)C,103,100,90,-40
Cc1nc(COc2ccc(C(C)(C)C)cc2)sc1C(=O)NN,107,106,-11,8

Among those listed so far, 6 contain a thiophene ring, fused or not.
SMILES,Polio RdRp inh intensity,Polio RdRp inh,Mtb MbtI inh,Mtb MenB inh
CNc1ccccc1C(C)(C)c1cc(-c2cccs2)n[nH]1,100,99,-11,/
CCc1c(C)sc(NC(=O)c2cccs2)c1C(N)=O,79*,74*,/,-37
COc1ccc(-c2nc(C)c(CCNS(=O)(=O)c3ccc(Cl)s3)s2)cc1OC,104,99,33,-8
O=C(Nc1ccccc1NC(=O)c1cccs1)c1cccs1,103,102,-13,9
CC(C)CC1=NN2C(=N)/C(=C/c3cccs3)C(=O)N=C2S1,106,101,9,-42
CCCn1cnc2c(sc3nc4c(cc32)CSC(C)(C)C4)c1=O,103,102,-13,-5
